rRNA inh HTS: inhibits bacterial ribosomal RNA function over humanized ribosomes; E. coli WT GFP vs humanized-ribosome RFP mutants, fluorescence, 24 h; active compounds read low; DMSO median 0, no signal -100; GFP signal change (wild-type ribosome), % (test concentration not listed); hit rate 1.6% among 350,000; AID 720706;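 active means significant combined selectivity score with lowered wild-type GFP, culture density cut under 30%, mutant RFP and density less affected; inactive means any of these conditions unmet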; further: one replicate is shown; some compounds called inactive have numbers as strong as hits
FGF22 binding: shifts melting point of recombinant human FGF22. AID 651658. hit rate 1.5% among 340,000. Q9HCT0. recombinant FGF22 thermal shift, SYPRO orange fluorescence; percent of sucrose octasulfate shift, DMSO zero. calls only at 9.99 µM;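 active means melting point raised past a set limit in the mean and every replicate; inconclusive means no clear call; three in four hits are not shown here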
Target sequence (Q9HCT0 whole entry, looked up): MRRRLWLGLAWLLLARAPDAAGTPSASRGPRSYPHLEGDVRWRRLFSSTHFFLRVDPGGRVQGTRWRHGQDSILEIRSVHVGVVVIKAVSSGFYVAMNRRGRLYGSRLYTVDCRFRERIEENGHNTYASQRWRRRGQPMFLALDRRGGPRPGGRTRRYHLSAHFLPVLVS
AF4-AF9 inh: inhibitors of human MLL-AF4/AF9 interaction | AlphaScreen, biotin-AF4 peptide binding to FLAG-AF9 | inhibition, % at 10 µM | hit rate 0.47% among 350,000;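 active means every replicate reaching a set inhibition limit, whatever the replicate mean, cut at about 25% in these data; inconclusive means mean inhibition reaches that limit but some replicates miss it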;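 further: 0% = plate neutral control median and 100% = total signal loss; the record names both 10 and 1 µM as test concentration; the first replicate is given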
Vif A3G: HIV-1 Vif–A3G interaction blockers – biochemical, TR-FRET, GST-Vif 1-94, biotin-A3G peptide, dose response retest, primary screen (AID 1117319); TR-FRET GST-Vif / biotin-A3G peptide binding; higher % means a stronger effect; test concentration not given here; strong numbers were not always called active; inhibition, %; hits with a dose series show IC50 in µM; hit rate 0.57% among 260,000;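 active means above the screen mean plus three standard deviations and confirmed in dose response; inconclusive means results disagree or hit not tested in dose response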;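 further: Vif residues 1-94 fused to GST binding biotinylated APOBEC3G peptide 110-148; 0% = full assay without inhibitor and 100% = GST in place of GST-Vif; retest series ran down from 100 µM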
ALR inh: human ALR oxidase inhibition via reduced H2O2; purified ALR, DTT oxidation, H2O2 HRP-luminol luminescence; P55789; hit rate 3.8% among 290,000; inhibition, % (concentration not given with the values);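 active means mean and each replicate at 75% or more; inconclusive means only one of the two met; inactive means neither met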;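 further: stock transfer was 7.5 nL into about 7.5 µL; 0% = neutral wells and 100% = wells with inactivated enzyme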
Target sequence (P55789 whole entry, looked up): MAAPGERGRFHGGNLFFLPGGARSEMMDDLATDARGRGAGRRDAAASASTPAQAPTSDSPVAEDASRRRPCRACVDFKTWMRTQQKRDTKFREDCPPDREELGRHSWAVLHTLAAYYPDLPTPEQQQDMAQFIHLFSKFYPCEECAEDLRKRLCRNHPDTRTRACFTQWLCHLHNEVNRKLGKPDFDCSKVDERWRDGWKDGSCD
HNF4A DNA FP: change in binding of human HNF4 alpha to DNA. P41235. HNF4a-FITC DNA binding, fluorescence polarization, 1 h. activity change, % at 10 µM. hit rate 0.3% among 360,000; in the data active means activity change above about 30%, passing the limit was not always enough;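 further: controls were the assay level and a saturating level of protein; the project sought stronger binding though the title names inhibitors; some compounds called inactive have numbers as strong as hits; positive values seem to mean higher polarization but the record does not say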
Target sequence (P41235 whole entry, looked up): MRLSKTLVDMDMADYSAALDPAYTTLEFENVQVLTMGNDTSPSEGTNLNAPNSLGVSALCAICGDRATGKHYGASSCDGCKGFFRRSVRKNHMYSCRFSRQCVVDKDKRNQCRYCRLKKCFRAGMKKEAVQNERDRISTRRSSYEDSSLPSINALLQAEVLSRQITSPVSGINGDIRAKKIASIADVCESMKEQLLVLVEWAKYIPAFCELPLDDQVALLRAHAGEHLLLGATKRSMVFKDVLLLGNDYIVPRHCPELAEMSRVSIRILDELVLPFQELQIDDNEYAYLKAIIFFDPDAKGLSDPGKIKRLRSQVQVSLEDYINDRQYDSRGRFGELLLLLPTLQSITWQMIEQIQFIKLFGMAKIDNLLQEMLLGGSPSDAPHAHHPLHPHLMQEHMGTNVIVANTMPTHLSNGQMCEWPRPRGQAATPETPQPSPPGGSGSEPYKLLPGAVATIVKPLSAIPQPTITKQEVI
E coli growth: E. coli growth inhibition. Escherichia coli growth, OD600, 23 h; active compounds read low. OD600 absorbance (test concentration not listed). hit rate 0.21% among 330,000. AID 1053175;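 active means OD600 absorbance below the run mean of sample wells minus 3.6 SD, in any replicate, cut at about 0.56 in these data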;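 further: stock transfer was 300 nL into about 60 µL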
rRNA inh HTS OD600: second read-out of rRNA inh HTS, no call of its own (marks repeat the call); OD600 change, %; measured here: OD600 growth;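 optical density of the mix in the first replicate; 0 = DMSO median and -100 = no signal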
rRNA inh HTS RFP: second read-out of rRNA inh HTS, no call of its own (marks repeat the call); RFP signal change, %; measured here: RFP humanized mutant strains;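 first replicate; 0 = DMSO median and -100 = no signal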
* hit, by the source's call; i = inactive; u = inconclusive; x = not tested or not shown. The list is partial; count on the stated rates, not on these rows.

SMILES | rRNA inh HTS | rRNA inh HTS OD600 | rRNA inh HTS RFP | FGF22 binding | AF4-AF9 inh | Vif A3G | ALR inh | HNF4A DNA FP | E coli growth
CCCCc1ncc(CN2CCN(Cc3ccc(C)cc3)C(CCO)C2)[nH]1 (centres undefined) | 10 | 4 | -3.6 | i | 6.1 | 26% | 0 | 2.7 | 0.67
COc1ccccc1-c1nn(-c2ccccc2)cc1C(=O)NCC(c1ccco1)N1CCCC1 (centres undefined) | x | x | x | i | 5.1 | 1% | -2 | -1.8 | 0.66
C[C@@H]1CN([C@@H](C)CO)C(=O)c2cc(NC(=O)c3ccccc3)ccc2O[C@@H](C)CCCCO[C@H]1CN(C)S(=O)(=O)c1ccc(Cl)cc1 | 1 | 6 | 0.0 | i | -1.1 | x | x | x | x
C[C@H]1CN([C@@H](C)CO)C(=O)c2cc(-c3cccc(C#N)c3)cnc2O[C@@H]1CN(C)C | 9 | 5 | -0.8 | i | -2.7 | x | x | x | x
C/C(=N\NC(=S)Nc1ccc(F)cc1)C1CC1 | 1 | 10 | -3.3 | i | -8.5 | 19% | 98* | -1.1 | x
CCOC(=O)c1c(NC(=O)c2cc(CC(C)C)on2)sc(C(C)=O)c1C | 8 | 10 | 6.3 | i | 2.7 | 74% | -5 | 1.3 | 0.73
COc1cccc(C(=O)OCn2nnc3ccccc3c2=O)c1 | -22* | -12* | -3.2* | i | 9.3 | 2% | 4 | -2.9 | 0.65
N#C[C@@H]1[C@H](c2ccccc2C2=CCCC2)[C@@H](CO)N1S(=O)(=O)c1ccccc1 | -14 | -54 | 8.3 | i | 1.8 | x | x | x | x
COc1ccc2[nH]c(=O)c(CN(C(=O)c3cccnc3)c3cc(C)ccc3C)cc2c1 | 7 | 4 | -3.9 | i | 6.7 | -26% | -5 | 1.1 | 0.71
CCOC(=O)c1ccc(O)c(-n2cc3c(c2-c2ccccc2)c(=O)n(C)c(=O)n3C)c1 | -4 | 0 | 0.4 | i | -18 | x | x | 1.5 | x
O=C(CN1CCN(c2ccc(O)cc2)CC1)Nc1ccc2c(c1)OCCO2 | 9 | -2 | 1.3 | i | -1.7 | u | 78* | 0.0 | 0.72
COc1ccccc1C(=O)CN1C(=O)NC2(CCc3ccccc32)C1=O (centres undefined) | 2 | 2 | -1.7 | i | -43 | -4% | x | 2.5 | 0.69
CCOC(=O)C1CCN(C(=O)COc2ccc(Br)cc2C)CC1 | 5 | 4 | 0.4 | i | 1.1 | 5% | -6 | 1.2 | 0.69
CC1=C(C(=O)O)N2C(=O)C(NC(=O)c3ccccc3Cl)C2SC1 (centres undefined) | -2 | 7 | 0.1 | i | -7.1 | x | 4 | -3.9 | 0.71
CCOC(=O)C(CCc1ccccn1)c1ccccc1 (centres undefined) | -2 | 3 | -1.3 | i | -2.1 | 0% | x | -0.6 | 0.65
CC1(C)Cc2c(cnn2-c2ccccc2)C(=O)/C1=N\NC(=O)c1ccccc1 | 18 | 16 | 0.7 | x | x | 26% | x | 1.7 | 0.65
CC(C)(C)N(Cc1ccccc1)C(=O)c1ccc2c(c1)OCCO2 | x | x | x | x | x | 24% | -5 | -1.4 | 0.71
CNC[C@H]1Oc2cc(C#Cc3cccc(F)c3)ccc2S(=O)(=O)N([C@@H](C)CO)C[C@@H]1C | -4 | -12 | 19 | i | 5.5 | x | x | x | x
COc1ccc(/C=C2\SC(=S)N(NC(=O)c3csc4c3CCCC4)C2=O)cc1 | x | x | x | x | x | -2% | -2 | 1.7 | 0.7
Cc1nc2ccc(NC(=O)c3ccc(Br)o3)cc2s1 | -7 | -5 | -3.6 | i | -1.4 | -4% | -6 | 6.5 | 0.68
Cc1cccc(C(=O)NNC(=O)c2ccccc2-n2cccc2)c1 | 2 | 2 | -1.1 | i | 0.2 | -6% | -4 | -0.1 | 0.63
c1cc(CSc2nnc(-c3ccc4c(c3)OCO4)o2)ccn1 | x | x | x | x | x | u | -16 | 4.3 | 0.65
CCC(=O)Nc1ccc(S(=O)(=O)c2ccc(NC(=O)CC)cc2)cc1 | x | x | x | x | x | 3% | -3 | 0.1 | 0.65
CCOC(=O)C1=C(C)NC(=O)NC1c1c(O)ccc2ccccc12 (centres undefined) | -9 | -14 | -1.4 | i | -6.1 | 0% | -86 | 1.8 | 0.76
COc1ccc2cc3cc(C(=O)N4CCCCCC4)oc3nc2c1 | x | x | x | x | x | x | -1 | 3.3 | 0.68
CN(C)CC(=O)Nc1ccc2c(c1)[C@@H]1C[C@H](CC(=O)N(C)C)O[C@H](CO)[C@@H]1O2 | -1 | -6 | -3.4 | i | 0.1 | x | x | x | x
c1cncc(-c2nnc(SCc3nc4ccccc4[nH]3)o2)c1 | x | x | x | x | x | 0% | x | 4.1 | 0.69
CN(CC(=O)NC(=O)NC1CCCCC1)c1ccccc1 | 3 | 11 | -0.3 | i | 1.3 | -7% | -5 | 1.6 | 0.69
COc1ccc(NC(=O)COC(C)=O)cc1OC | 5 | 11 | 0.1 | x | -2.5 | -4% | -4 | -2.8 | 0.72
C[C@@H]1CCCCO[C@@H](CN(C)C(=O)C2CCCCC2)[C@@H](C)CN([C@H](C)CO)C(=O)c2cc(NC(=O)CCC(F)(F)F)ccc2O1 | 1 | 13 | -1.6 | i | -0.6 | x | x | x | x
CCOC(=O)CNC(=O)c1ccc(C)cc1 | x | x | x | x | x | 23% | -7 | -1.4 | 0.79
COc1ccc(CCN2C(=O)CSC2c2ccc(OC)c(OC)c2)cc1OC (centres undefined) | x | x | x | i | -1.3 | -4% | -2 | 3.5 | 0.73
COc1ccc2c(=O)c3c(=O)n(-c4ccccc4)c(-c4ccco4)nc3oc2c1 | 13 | 12 | 0.2 | i | -1.9 | 0% | -22 | -1.3 | 0.67
COc1ccc([C@@H](NC(=O)OC(C)(C)C)C(=O)OC(C)(C)C)cc1 | 24 | 18 | 14 | i | -0.6 | x | -5 | 1.9 | x
O=C(/C=C/c1cccs1)N1CCN(c2ccccc2)CC1 | -10 | 1 | -1.9 | i | 2.8 | -1% | x | -1.1 | 0.67
O=C(CN1CCN(CC(=O)Nc2ccccc2Cl)CC1)Nc1ccc(F)c(F)c1 | 11 | 11 | 2.6 | i | -0.5 | -5% | 9 | -3.1 | 0.63
COc1ccccc1OC(C)C(=O)N1CC(=O)Nc2ccccc21 (centres undefined) | 4 | -8 | -4.1 | i | 3.3 | x | 6 | -2.5 | 0.68
CC(=O)c1cccc(NC(=O)Nc2cccs2)c1 | x | x | x | x | x | 11% | 96* | 5.3 | 0.55
COc1ccccc1NC(=O)C1CCCN(C(=O)Nc2ccc(F)cc2)C1 (centres undefined) | 0 | 8 | -0.2 | i | 2.0 | x | 2 | -1.0 | 0.65
O=C1C[C@@H]2c3c(cccc3CN1Cc1ccc(Br)cc1)C[C@@H](O)[C@H]2O | 7 | 13 | -5.9 | i | -0.8 | x | x | -1.8 | x

A draw from above in order of molar mass, descending:
SMILES | rRNA inh HTS | rRNA inh HTS OD600 | rRNA inh HTS RFP | FGF22 binding | AF4-AF9 inh | Vif A3G | ALR inh | HNF4A DNA FP | E coli growth
CN(C)CC(=O)Nc1ccc2c(c1)[C@@H]1C[C@H](CC(=O)N(C)C)O[C@H](CO)[C@@H]1O2 | -1 | -6 | -3.4 | i | 0.1 | x | x | x | x
COc1ccc([C@@H](NC(=O)OC(C)(C)C)C(=O)OC(C)(C)C)cc1 | 24 | 18 | 14 | i | -0.6 | x | -5 | 1.9 | x
COc1ccc(NC(=O)COC(C)=O)cc1OC | 5 | 11 | 0.1 | x | -2.5 | -4% | -4 | -2.8 | 0.72

(next part)
SMILES | rRNA inh HTS | rRNA inh HTS OD600 | rRNA inh HTS RFP | FGF22 binding | AF4-AF9 inh | Vif A3G | ALR inh | HNF4A DNA FP | E coli growth
C[C@@H]1CN([C@@H](C)CO)S(=O)(=O)c2ccc(C3=CCCCC3)cc2O[C@H]1CN(C)C(=O)C1CCOCC1 | 4 | -4 | 0.9 | i | 2.2 | x | x | x | x
CC1Cc2[nH]c(=S)[nH]c(=O)c2C(C)O1 (centres undefined) | 11 | 14 | -1.0 | i | -5.9 | x | x | -3.9 | x
COc1ccc(NC(=O)N2CCC(C(=O)c3ccc4c(c3)OCCO4)CC2)cc1 | -27 | -41 | -7.4 | i | 1.5 | x | -5 | 0.0 | 0.67
CC1CCN(C(=O)c2cccc(S(=O)(=O)N3CCCc4ccccc43)c2)CC1 | -28 | -48 | -6.7 | i | 7.6 | -6% | -15 | 2.9 | 0.69
CC(C)(C)C1CCc2nc(NC(=O)Cc3cn4ccsc4n3)sc2C1 (centres undefined) | x | x | x | x | x | 3% | 4 | -3.7 | 0.68
COCCn1c(=S)[nH]c2cc(C(=O)NCCc3ccccc3)ccc2c1=O | -5 | 1 | -0.6 | x | -6.1 | x | -1 | 4.6 | 0.65
COc1cccc(-c2cccc(NC(=O)C3CCN(Cc4cccc(C)n4)CC3)c2)c1 | 16 | 5 | 0.8 | i | 0.3 | 5% | -1 | 1.7 | 0.68
C[C@@H]1CN([C@@H](C)CO)C(=O)c2cc(NC(=O)c3ccccc3)ccc2O[C@@H](C)CCCCO[C@@H]1CN(C)S(=O)(=O)c1ccc(Cl)cc1 | 2 | 0 | 3.5 | i | -1.3 | x | x | x | x
CCOC(=O)CSc1nc(N)cc(=O)[nH]1 | x | x | x | x | x | 7% | 11 | 2.5 | 0.77
O=c1n(-c2ccccc2)c(=O)n(Cc2ccccn2)n1Cc1ccccn1 | x | x | x | x | x | -2% | -7 | 0.3 | 0.7
COc1ccc(C(=O)Nc2cnc3sc(C)nn3c2=O)cc1 | 20 | 6 | -2.8 | x | -1.2 | 1% | -8 | 0.3 | 0.67
COc1ccc(CNC(=O)CCC(=O)N2CC(C)Oc3ccccc32)cc1 (centres undefined) | 4 | 13 | 3.6 | i | -13 | x | -8 | -0.5 | 0.68
CC(Nc1cc(=O)n(C)c(=O)[nH]1)c1ccccc1 (centres undefined) | x | x | x | x | x | -2% | 14 | 2.7 | 0.69
Cc1ccc(S(=O)(=O)Nc2ccc3c(c2)CC(=O)N([C@H](C)CO)C[C@@H](C)[C@H](CN(C)Cc2ccc(C(=O)Nc4ccccc4N)cc2)O3)cc1 | 1 | -8 | 2.3 | i | -1.8 | x | x | x | x
COc1ccc(/C=C(\C#N)C(=O)OCC(=O)Nc2c(C)cccc2C(C)C)cc1 | x | x | x | x | x | -4% | 0 | -2.2 | 0.68
CCCn1ccc(O)c(Cc2ccc(Cl)cc2)c1=O | -2 | -6 | -0.2 | i | -0.9 | -3% | 0 | -1.0 | 0.68
CC(C)(C)c1ccc(/C=N/Nc2ccc(C(=O)O)cc2)cc1 | 1 | -1 | -2.2 | i | 5.6 | -7% | x | 0.8 | x
CCC1CCC(C(=O)NC(C(=O)NCCN2CCOCC2)C(C)C)CC1 (centres undefined) | 0 | 4 | -1.2 | x | 4.0 | x | -3 | -2.7 | 0.68
CN1/C(=C\C(=O)c2ccco2)c2ccccc2CC1(C)C | x | x | x | x | x | 5% | 0 | 2.3 | 0.67
CN1CCN(CC(=O)Nc2ccc([N+](=O)[O-])cc2Br)CC1 | -1 | 1 | -11 | i | -0.3 | -7% | -7 | 0.4 | 0.61
Oc1ccc(CN2CCCCC2)c2cccnc12 | -7 | -4 | -5.7 | i | u | x | -11 | 3.4 | 0.68
O=c1c2ccccc2on1-c1ccccc1 | -4 | 10 | -2.7 | i | -7.1 | x | x | 32 | x
COC(=O)CCc1ccc(O)cc1 | x | x | x | i | 0.3 | x | 14 | 3.7 | 0.74
COc1cccc(N/C(N)=N/c2nc(C)cc(=O)[nH]2)c1 | x | x | x | x | x | x | -3 | -1.7 | 0.71
C=CCN1C(=O)S/C(=C/c2ccc(Sc3nc4ccccc4[nH]3)o2)C1=O | x | x | x | x | x | -3% | 0 | 117 | 0.74

High-throughput results deposited in PubChem by several laboratories.
